# T cruzi repl: blocks replication of Trypanosoma cruzi. T. cruzi beta-gal in NIH3T3, luminescence, 90 h. inhibition, % (concentration not given with the values). 1.4% of 300,000 active;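 active = mean inhibition across valid replicates above about 55%, limit read from the data; inconclusive = mean below that limit but half or more replicates reach it; inactive = mean below it, under half of replicates reach it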;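 note: signal also drops with host cell toxicity which is not excluded here; 0% = plate median of DMSO wells and 100% = zero luminescence signal; higher percent means less beta-gal luminescence so fewer parasites; stock transfer was 50 nL into about 50 µL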
# Beta cell apopt: blocks beta cell apoptosis. 0.8% of 300,000 active. protection from apoptosis, % (concentration not given with the values). INS-1E cytokine-induced death, ATP luminescence, 48 h; percent of positive-control rescue, neutral wells zero;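 active = all replicates at 75% or more, or half of them and the mean; inconclusive = half reach 75% but not the mean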;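 note: 0% = cytokine-treated negative control wells and 100% = positive control rescue; higher means more ATP so stronger rescue from cytokine killing; wells of about 40 µL received 100 nL stock; the first replicate is given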
# Ecoli rRNA inh: inhibits bacterial ribosomal RNA function over humanized ribosomes; AID 720706; 1.6% of 350,000 active; E. coli WT GFP vs humanized-ribosome RFP mutants, fluorescence, 24 h; active compounds read low; DMSO median 0, no signal -100; GFP signal change (wild-type ribosome), % (concentration not given with the values);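 active = significant combined selectivity score with lowered wild-type GFP, culture density cut under 30%, mutant RFP and density less affected; inactive = any of these conditions unmet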; note: one replicate is shown; some compounds called inactive have numbers as strong as hits
# RanGTP-Impb inh: inhibitors of RanGTP-importin-beta interaction, primary screen, biochemical, FRET, CFP-Ran, YFP-importin-beta, homogeneous. 1.1% of 300,000 active. cell-free CFP-Ran/YFP-importin-beta FRET ratio. inhibition, % (no concentration beside the values);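 active = most replicates above 15%; inconclusive = exactly half above 15%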;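 note: 0% = DMSO wells and 100% = Ran loaded with GDP instead of GTP; wells of about 40 µL received 100 nL stock; the first replicate is given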
# MLL AF4-AF9 inh: MLL-AF4/AF9 protein interaction inhibition | AlphaScreen, biotin-AF4 peptide binding to FLAG-AF9 | inhibition, % at 10 µM | P42568 | 0.47% of 350,000 active;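 active = every replicate reaching a set inhibition limit, whatever the replicate mean, cut at about 25% in these data; inconclusive = mean inhibition reaches that limit but some replicates miss it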;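 note: 0% = plate neutral control median and 100% = total signal loss; the record names both 10 and 1 µM as test concentration; the first replicate is given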
# Target sequence (P42568 whole entry, looked up): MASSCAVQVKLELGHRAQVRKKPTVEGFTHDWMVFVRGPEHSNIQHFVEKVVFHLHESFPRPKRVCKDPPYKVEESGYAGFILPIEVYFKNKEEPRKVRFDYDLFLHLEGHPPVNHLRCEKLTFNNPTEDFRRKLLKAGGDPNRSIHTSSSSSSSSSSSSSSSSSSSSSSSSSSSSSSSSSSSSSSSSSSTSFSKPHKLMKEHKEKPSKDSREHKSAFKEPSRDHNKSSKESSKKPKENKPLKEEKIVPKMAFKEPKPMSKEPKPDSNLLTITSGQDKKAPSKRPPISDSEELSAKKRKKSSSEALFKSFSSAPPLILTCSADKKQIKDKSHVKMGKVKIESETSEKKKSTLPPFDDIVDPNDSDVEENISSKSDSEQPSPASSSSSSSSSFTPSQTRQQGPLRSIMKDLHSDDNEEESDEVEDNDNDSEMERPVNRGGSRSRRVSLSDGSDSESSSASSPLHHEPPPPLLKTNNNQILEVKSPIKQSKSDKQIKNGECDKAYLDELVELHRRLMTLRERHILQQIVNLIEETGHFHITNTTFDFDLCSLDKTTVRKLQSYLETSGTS
# Calb FLC: C. albicans growth modulation with fluconazole. AID 1979. growth inhibition, % (test concentration not listed). C. albicans CaCi-2 (fluconazole-resistant clinical isolate) + fluconazole, Alamar Blue growth, 48 h. 0.57% of 300,000 active;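 active = most replicates above 75%; inconclusive = exactly half above 75%; inactive = most below 75%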;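 note: all wells also contain fluconazole at 8 µg/ml as a sub-toxic cotreatment; 0% = median of DMSO wells and 100% = median of geldanamycin control wells; wells of about 8 µL received 7.5 nL stock; the first replicate is given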
# A1 inh: inhibitors of the anti-apoptotic protein A1, read as caspase activation. MEF A1-2A-BIM cells, Caspase-Glo 3/7 luminescence, 3 h; percent of clofoctol response, vehicle zero. caspase activation, % (no concentration beside the values). 0.066% of 330,000 active. AID 2462;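 active = over half of replicate activation scores above 10%, or exactly half above 10 with the replicate mean above 10; inconclusive = replicate mean below 10 yet half the replicates above 10; inactive = over half of replicates below 10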;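 note: wells of about 30 µL received 50 nL stock; many hits fall short of the cut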
# Vif TR-FRET: HIV-1 Vif–A3G interaction blockers – biochemical, TR-FRET, GST-Vif 1-94, biotin-A3G peptide, dose response retest, primary screen (AID 1117319); inhibition, %, or IC50 in µM where a hit was titrated; 0.57% of 260,000 active; TR-FRET GST-Vif / biotin-A3G peptide binding; higher % means a stronger effect; test concentration not given here; strong numbers were not always called active;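 active = above the screen mean plus three standard deviations and confirmed in dose response; inconclusive = results disagree or hit not tested in dose response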;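 note: Vif residues 1-94 fused to GST binding biotinylated APOBEC3G peptide 110-148; 0% = full assay without inhibitor and 100% = GST in place of GST-Vif; retest series ran down from 100 µM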
# Ecoli rRNA inh OD600: further read-out of Ecoli rRNA inh, marked with its call; OD600 change, %; measured here: OD600 growth;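 optical density of the mix in the first replicate; 0 = DMSO median and -100 = no signal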
# Ecoli rRNA inh RFP: also measured in Ecoli rRNA inh; calls as there; RFP signal change, %; measured here: RFP humanized mutant strains;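 first replicate; 0 = DMSO median and -100 = no signal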
# * marks the source's active call; other numbers are inactive results; ? = inconclusive; nt = no result given; & = joins results of further samples. Not all compounds are listed (hit frequency here may not be typical).
SMILES,T cruzi repl,Beta cell apopt,Ecoli rRNA inh,Ecoli rRNA inh OD600,Ecoli rRNA inh RFP,RanGTP-Impb inh,MLL AF4-AF9 inh,Calb FLC,A1 inh,Vif TR-FRET
CCn1nnnc1SCC(=O)Nc1nc2ccc(OC)cc2s1,1,-3,nt,nt,nt,-1.0,nt,1,-0.8,-10%
O=C(COC(=O)c1ncc(Cl)c(Cl)c1Cl)NCc1cccs1,-18,-2,2,2,0.1,nt,-0.7,-6,0.9,-2%
O=C(Nc1cccs1)Nc1ccc(F)cc1F,-23,-6,nt,nt,nt,0.9,nt,5,-6.9,7%
O=C(CNC(=O)c1ccc(Br)o1)NNC(=O)COc1ccccc1Cl,nt,0,-1,-6,-1.1,nt,0.4,nt,-0.4,10%
C=C1C(=O)O[C@H]2[C@H]1[C@@H](O)CC(=C)[C@@H]1CC(=O)[C@@H](C)[C@H]21,-6,-24,nt,nt,nt,-2.2,nt,-12,0.2,-4%
CN(C)S(=O)(=O)c1cc(NC(=O)COC(=O)CC2CC3CCC2C3)ccc1Cl (centres undefined),nt,-6,-9,-44,-8.9,nt,3.7,nt,0.1,nt
CC1CCCC(C)N1C(=O)COC(=O)CNC(=O)c1ccccc1F (centres undefined),nt,-3,16,12,1.6,nt,-1.7,nt,0.7,-6%
O=C(N/N=C/c1c[nH]c2ccccc12)c1cccc([N+](=O)[O-])c1,-15,-3,nt,nt,nt,2.7,nt,-4,?,27%
O=C(COc1ccc(S(=O)(=O)N2CCCC2)cc1Cl)NCc1ccc2c(c1)OCO2,8,1,nt,nt,nt,1.1,nt,0,-0.2,0%
CC(C)NC(=O)Nc1cccs1,6,-5,nt,nt,nt,-3.4,nt,-7,1.4,22%
O=C(NNS(=O)(=O)c1ccc(Cl)cc1)c1cccc(S(=O)(=O)N2CCOCC2)c1,-1,-4,4,8,11,0.9,-4.0,7,-0.1,27%
CCC1(c2ccccc2)NC(=O)N(CC(=O)NCc2ccc(F)cc2)C1=O (centres undefined),5,2,4,7,0.7,2.8,-3.0,-7,-0.4,nt
Cc1cccc(OCc2nnc(SCCC(=O)O)n2-c2ccccc2)c1,-9,0,-7,-9,-3.3,-1.9,-2.1,-2,?,-6%
CC(=O)Nc1ccc(S(=O)(=O)NCC(=O)OCC(=O)N2CCc3ccccc32)cc1,-18,-5,nt,nt,nt,3.9,nt,19,0.5,-7%
O=C(NNC(=S)Nc1ccc(F)cc1)c1ccccc1OC(F)F,-17,13,nt,nt,nt,-3.1,nt,18,1.4,6%
CCOC(=O)Cn1nc(C)c(NC(=O)COc2ccc(OC)cc2)c1C,6,-5,4,5,1.0,-2.8,-6.5,10,0.4,0%
Cc1ccc(OC(C)C(=O)N/N=C/c2ccccn2)cc1 (centres undefined),6,-2,-5,-3,-2.7,-2.8,-3.2,7,-0.3,nt
Cc1c(C(=O)NCc2ccoc2)oc2ccc3c(c12)C(=O)CC(C)(C)O3,10,1,nt,nt,nt,-0.7,nt,2,-0.4,3%
COc1ccccc1C(=O)N1CCN(Cc2ccc3c(c2)OCO3)CC1,-3,-3,nt,nt,nt,?,nt,0,3.0,15%
O=C(Nc1cccnc1Cl)c1ccc(=O)oc1,-10,-2,17,8,16,-5.0,-4.2,8,1.0,nt
COCCN1CCN(C(=O)c2cc(COc3ccc(F)cc3F)on2)CC1,-7,0,14,13,-1.2,-1.4,-1.0,0,-2.2,0%
CCn1nc(NS(=O)(=O)c2ccc(NC(C)=O)cc2)c2cc3cc(C)ccc3nc21,-3,nt,-24,-31,11,6.5,-8.1,-3,1.2,nt
COc1cc(NC(=O)c2ccc3c(c2)OCCO3)ccc1NC(=O)c1ccco1,10,-4,10,3,2.8,-2.2,-0.2,5,-1.0,-18%
Cc1cccc(NC(=O)C2NC(=O)CC2c2ccccc2)c1C (centres undefined),-5,2,6,8,-1.2,3.5,1.6,-3,?,0%
Nc1c(Cl)cc(-c2[nH]c3cc(C(=O)NCCO)ccc3c(=O)c2O)cc1Cl,-23,5,-5,8,1.9,0.4,15,69,-0.5,nt
SMILES,T cruzi repl,Beta cell apopt,Ecoli rRNA inh,Ecoli rRNA inh OD600,Ecoli rRNA inh RFP,RanGTP-Impb inh,MLL AF4-AF9 inh,Calb FLC,A1 inh,Vif TR-FRET
COc1ccc(/C(N)=N/OC(=O)CC2CCCCC2)cc1,-17,nt,-1,-17,2.3,0.1,11,-19,0.2,-2%
O=C(O)c1ccnc(C(=O)O)c1,-10,-6,nt,nt,nt,0.3,nt,-3,-1.0,28%
COc1ccc2cc(CCNC(=O)c3cccc([N+](=O)[O-])c3)c(=O)[nH]c2c1,18,0,8,7,2.2,-3.6,1.2,11,-0.3,-6%
CCOC(=O)N1CCC(NS(=O)(=O)c2ccc(C)cc2)CC1,-9,0,14,6,1.7,?,-2.9,-12,0.2,8%
O=C(O)c1cccc(S(=O)(=O)Nc2ccccc2Cl)c1,-17,5,nt,nt,nt,7.5,nt,4,-1.2,66%
O=C(NCC(c1ccco1)N1CCc2ccccc21)c1ccccc1Cl (centres undefined),1,0,-23,-21,-4.6,-2.1,8.5,-3,-0.2,-5%
COc1ccccc1CCNC(=O)C(=O)NCC1OCCN1S(=O)(=O)c1ccc(Cl)cc1 (centres undefined),-16,0,-1,-32,-3.5,1.8,-2.9,1,-0.2,nt
Cc1nc(N)c(C#N)c(-c2ccccc2Cl)c1C,-5,-11,nt,nt,nt,0.5,nt,14,-1.0,-1%
N#C/C(C(=O)NCc1ccco1)=C1/SC(Cc2ccc(F)cc2)C(=O)N1c1ccccc1 (centres undefined),nt,1,nt,nt,nt,nt,nt,6,0.2,16%&6%
Cc1ccc2c(c1)nnn2C1CCN(CC(=O)N2CCN(c3ccc(F)cc3)CC2)CC1,19,4,nt,nt,nt,9.5,nt,12,-0.4,16%
CN1C(=O)N(c2cccc3ccccc23)C(n2cncn2)C1(C)C (centres undefined),-7,-3,nt,nt,nt,-3.5,nt,6,0.3,6%
O=C(C1CCN(Cc2ccc(F)cc2)CC1)N1CCN(C/C=C/c2ccccc2)CC1,15,nt,16,12,0.0,-1.2,5.4,-2,1.1,3%
O=C(NCc1ccccn1)Nc1ccc(Cl)cc1,nt,-6,0,-10,1.0,6.9,2.0,-11,0.2,nt
CC(C)c1ccc(N2CCN(C(=O)c3ccccc3NC(=O)/C=C\C(=O)O)CC2)cc1,0,27,nt,nt,nt,-2.9,nt,-5,0.0,12%
COc1ccc2cc(C(=O)C3CCCN(C(=O)c4csnn4)C3)ccc2c1 (centres undefined),7,-3,-4,-5,0.8,-1.7,2.1,17,-0.4,-7%
CNC(=S)N(CCc1c(C)[nH]c2ccccc12)Cc1cc(OC)c(OC)c(OC)c1,9,7,-5,-8,1.5,7.8,15,14,-0.7,2%
N#C/C(=C\c1cc(Br)ccc1F)C(=O)NC1CC1,-5,-6,-1,1,-0.5,4.4,0.4,5,-0.4,-1%
O=C(CN(CC1CCCO1)C(=O)CNS(=O)(=O)c1ccccc1)NCc1ccco1 (centres undefined),3,0,16,12,0.4,-0.2,0.8,?,-0.6,8%
c1ccc(CSc2ccc3nnc(-c4ccccn4)n3n2)cc1,-7,nt,-10,-7,-2.8,?,0.7,-28,0.0,nt
CC(NC(=O)COC(=O)c1cccs1)c1ccccc1 (centres undefined),-1,-3,8,10,2.7,2.1,-3.4,1,-0.7,-8%
Cc1ccc(C)c(N(C)C(=O)c2cc3c(=O)[nH]c4ccc(C)cc4c3s2)c1,52,21,8,5,-6.3,0.0,3.1,13,1.5,nt
Cc1cc(NC(=O)c2noc3c2CCc2ccccc2-3)no1,5,2,-4,6,-1.2,3.3,1.2,-5,-1.5,0%
CC1CN(C(=O)CSc2nnc(NC(=O)NC(C)(C)C)s2)CC(C)O1 (centres undefined),1,-3,11,6,-1.6,1.8,0.7,8,1.0,-1%
CC(=O)Nc1cccc(OCC(=O)Nc2sccc2C(N)=O)c1,-6,2,-3,2,-3.2,1.9,1.1,-7,-11,nt
COc1ccc2cc(CN(CC3CCCO3)C(=S)Nc3ccccc3)c(=O)[nH]c2c1 (centres undefined),17,-1,-11,-21,-1.6,-1.0,5.8,10,-0.7,0%
SMILES,T cruzi repl,Beta cell apopt,Ecoli rRNA inh,Ecoli rRNA inh OD600,Ecoli rRNA inh RFP,RanGTP-Impb inh,MLL AF4-AF9 inh,Calb FLC,A1 inh,Vif TR-FRET
Cc1ccc(NC(=O)C(=O)NCCCN2CC(C(=O)O)CC2=O)cc1 (centres undefined),-1,-2,0,14,-1.1,7.0,-4.1,-4,-1.0,nt
C=C(C)CC(Nc1ccc(OC)cc1)c1ccco1 (centres undefined),-9,-3,10,4,-1.2,0.7,-2.8,-6,-0.5,1%
Cc1cc(C(=O)NCC(C)C)c2ccccc2n1,-5,-13,nt,nt,nt,-3.0,nt,-3,0.1,-2%
CCOC(=O)N1CCN(S(=O)(=O)c2ccc(C(=O)NNc3nc4cc(C)cc(C)c4s3)cc2)CC1,49,84*,nt,nt,nt,-4.5,nt,-1,-0.5,20%
CCCC[C@@H]1C[C@H]1[C@@H](NC(=O)c1ccco1)c1ccc(C(=O)OC)cc1,-1,-2,5,20,-1.5,4.2,5.2,2,0.5,nt
CC12CCC(C(=O)NCc3ccc4c(c3)OCO4)(OC1=O)C2(C)C (centres undefined),-8,nt,nt,nt,nt,0.6,nt,-2,0.4,3%
COc1cccc(NC(=O)c2ccc(NCCCN3CC(C)CC(C)C3)c([N+](=O)[O-])c2)c1 (centres undefined),40,nt,-46*,-9.1*,5.0*,-5.3,-1.8,-19,nt,nt
CC(C)c1ccc(NC(=O)Cn2ncc3ccccc32)cc1,3,0,4,1,-0.7,-3.7,1.2,-8,0.3,-7%
Cc1cc(C)c2cc(C#N)c(SCC(=O)NCc3ccco3)nc2c1,-19,6,nt,nt,nt,3.9,nt,4,-4.1,-2%
O=C(O)Cc1ccc(NC(=S)NCc2ccco2)cc1,-11,2,nt,nt,nt,-1.8,nt,0,-0.2,9%
CC(C)CCC(O)(CCC(C)C)C(=O)NN1CCCCC1,13,-3,nt,nt,nt,-2.4,nt,-10,0.2,-1%
CC(=O)c1sc(=S)n(-c2ccc(Cl)cc2)c1C,-16,1,7,-3,5.9,0.5,2.2,4,-0.3,7%
COC(=O)Nc1ccc(S(=O)(=O)N2CCC(C)CC2)cc1,11,-1,nt,nt,nt,-2.0,nt,3,-0.2,-2%
CCn1c(/N=C/c2c[nH]c3ccccc23)nc2ccccc21,-16,-5,nt,nt,nt,-0.8,nt,25,0.3,2%
CN(C(=O)COC(=O)CNC(=O)c1cccs1)c1c(N)n(Cc2ccccc2)c(=O)[nH]c1=O,nt,-7,17,8,0.0,nt,0.6,nt,0.5,-2%
Cc1cccc(C(=O)N2CCC(=O)N(C(COCc3cccc(C(F)(F)F)c3)Cc3ccccc3)CC2)c1 (centres undefined),1,4,5,-5,15,0.7,0.0,16,-0.6,1%
CN(CCc1ccccn1)S(=O)(=O)c1ccc2c3c(cccc13)C(=O)N2,-7,3,nt,nt,nt,7.2,nt,5,-0.2,-7%

# Screens (PubChem BioAssay)
